Vaccinia mCherry = qHTS for Stage-Specific Inhibitors of Vaccinia Orthopoxvirus: mCherry Reporter Primary qHTS. Vaccinia virus mCherry reporter infection, fluorescence; about a quarter of the inactives have no number. Potency, µM (top dose mostly 36.5 µM), inactives show at the highest dose activity change, negative = inhibition, usual class: inhibitors. hit rate 0.63% among 310,000. AID 720579, 2013; active = well fitted inhibition curve with a large enough effect; inconclusive = small, poorly fitted or top-dose-only effect; inactive = no such curve, though single readings can be large or run the other way; tested in A549 cells; also: nearly all actives have a fitted effect of over 35% in size; inactives centre near -10
VACV Venus inh = qHTS for Stage-Specific Inhibitors of Vaccinia Orthopoxvirus: Venus Reporter Primary qHTS. Vaccinia virus Venus reporter expression, fluorescence. Potency, µM (series often up to 36.5 µM), for inactives: at the highest dose activity change, negative = inhibition, actives largely listed as inhibitors. hit rate 0.46% among 330,000. AID 720580, 2013; active means well fitted inhibition curve with a large enough effect; inconclusive means small, poorly fitted or top-dose-only effect; inactive means no such curve, though single readings can be large or run the other way; tested in A549 cells; also: nearly all actives have a fitted effect of over 30% in size; inactives centre near -10
* hit, by the source's call; i = inactive; ? = inconclusive; nt = no result given; & = joins results of further samples; [ ] = remark or other dose. % is scaled to controls: 0 for no effect and ±100 for the full control effect; potency is read from the fitted curve at half-maximal effect.

SMILES	Vaccinia mCherry	VACV Venus inh
CCOc1ccc(NC(=O)C(C)n2c(=O)cc(-c3ccccc3)c3c(C)nn(C)c32)cc1 (stereo not given)	-6%	3%
O=C(O)CSCc1cnn(-c2ccccc2)c1-n1cccc1	-10%	-19%
O=C1C(Cc2ccccc2)Nc2ncnc(N3CCOCC3)c2N1Cc1ccc(Br)cc1 (stereo not given)	-5%	-24%&-13%
COCCCNC(=S)Nc1ccc(N2CCCCC2)cc1	-23%	-23%
Cc1cc(=O)oc2c(C)c(OCC(=O)NC3CC(C)(C)NC(C)(C)C3)ccc12	-8%	-10%
CCN(CCCNC(=O)C1CCC(=O)N1C1CCCC1)c1cccc(C)c1 (stereo not given)	nt	-17%
O=[N+]([O-])c1ccc2nc(-c3ccc(OC(F)F)cc3)cn2c1	5%	4%
COc1cccc(NC(=O)c2oc3ccccc3c2NC(=O)c2ccccc2C)c1	-11%	-3%
CCc1cccc(N(C(=O)c2csnn2)C(C(=O)NC2CCCC2)c2cccnc2)c1 (stereo not given)	4%	-5%
COc1ccccc1Nc1ncccc1C(=O)O	i	-11%
COc1ccc(-c2noc(=O)[nH]2)cc1	i	-5%
COc1ccc(N2C(=O)/C(=C/C=C/c3ccccc3[N+](=O)[O-])C(=O)NC2=S)cc1	9%	7%
Cc1cc2c(cc1S(N)(=O)=O)S(=O)(=O)CCC2	-11%	-9%
COc1ccc2c(CC(=O)OCC(=O)Nc3ccccc3[N+](=O)[O-])coc2c1	i	8%
Cc1nn(C)c(NC(=O)c2ccc([N+](=O)[O-])cc2)c1Cl	-6%	-11%
O=C(Nc1cccc(C(=O)OCc2cc(=O)n3ccsc3n2)c1)c1ccc(F)cc1	-15%	-6%
CCn1nc(C)c(CN2CCN(Cc3ccsc3)C(CCO)C2)c1C (stereo not given)	i	-5%
COc1cc(NC(=O)c2cc(C(C)C)on2)cc(OC)c1OC	-4%	-15%
Cc1c(-c2ccc(Cl)cc2)noc1C1CCN(CCc2ccccc2)CC1	0%	-21%
NS(=O)(=O)c1ccc(CCNC(=O)/C=C/c2ccccc2[N+](=O)[O-])cc1	-12%	-3%
Cc1nc(N)sc1-c1csc(Nc2ncccn2)n1	-6%	-7%
CS(=O)(=O)N1CCN(c2ccc(NC(=S)NC(=O)c3ccc4c(c3)OCO4)cc2)CC1	21%	5%
C=CCSc1nnc(Cc2cc(=O)[nH]c(=O)[nH]2)n1-c1cc(C)ccc1C	-15%	-4%
COc1ccccc1NC(=O)Cn1c(=O)n(CCc2c[nH]c3ccccc23)c(=O)c2cccnc21	?	-18%
N/C(=N\OC(=O)Cc1cccc2ccccc12)c1ccccn1	-18%	-14%
CCn1nc(C(=O)OCC(=O)N(CCC#N)c2ccccc2)c2ccccc2c1=O	-10%	-6%
COc1ccccc1/C=N/NC(=O)c1ccccc1NS(=O)(=O)c1ccc(C)cc1	i	-16%
O=C(/C=C/c1ccco1)NC1CCCC1	3%	-2%
Cc1ccccc1C1=N/C(=C/c2cccnc2)C(=O)O1	i	1%
O=C(COc1ccc(F)cc1)Nc1nccs1	i	-10%
CC(C)N(C(=O)CSc1n[nH]c(=O)n1CCc1ccccc1)C(C)C	9%	-4%
CCOC(=O)C(NC(=O)Nc1ncccn1)(Oc1ccccc1)C(F)(F)F (stereo not given)	nt	-12%
COc1ccc(NC(=O)c2ccc([N+](=O)[O-])cc2[N+](=O)[O-])c(OC)c1	-4%	-5%
COc1cc(NC(=O)CN2C3CCC2CC(O)(c2cccnc2)C3)cc(OC)c1 (stereo not given)	-10%	-8%
CCN(CC)C(=S)SCC(=O)Nc1cccc(C(F)(F)F)c1	-11%	-16%
N#CCCN(C(=O)CSc1nc2nc(-c3cccs3)cc(C(F)(F)F)c2c(=O)[nH]1)c1ccccc1	i	-13%
Nn1c(COc2ccc(Cl)cc2)n[nH]c1=S	-9%	-4%
CC1(Cc2c(Cl)cccc2Cl)C(=O)Nc2cc(-c3ccccc3Cl)ccc21 (stereo not given)	32%[activator]	-6%
Cc1cc(NC(=O)c2ccc(C#N)cc2)n(-c2ccccc2)n1	i	3%
O=C(CN(c1cc(C(F)(F)F)ccc1Cl)S(=O)(=O)c1ccccc1)NCCc1ccccc1	-16%	-20%
Cc1ccc(CN2CC(C(=O)NNC(=O)Cn3ccc(C(F)(F)F)n3)CC2=O)cc1 (stereo not given)	-12%	-15%
COc1ccc(NS(=O)(=O)c2ccc(C)c(C(=O)N(C)Cc3ccc(C)cc3)c2)cc1	?	-18%
Cn1c(N)c(C(=O)CCl)c(=O)n(C)c1=O	?	?
Cn1cccc1/C=C1/C(=O)NC(=O)N(C(C)(C)C)C1=O	i	3%
COc1cc(C(=O)NCC(=O)N/N=C(/C)c2ccc3c(c2)CCCC3)cc(OC)c1OC	-23%	-11%
CCN(CC)CCN1C(=O)C(=O)/C(=C(/O)c2ccc(Cl)cc2)C1c1ccncc1 (stereo not given)	-17%	-7%
N#C/C(=C\c1cn(Cc2cccc(F)c2)c2ccccc12)C(=O)NCc1ccco1	-18%	-19%
COc1ccccc1N(Cc1cc(=O)[nH]c2ccccc12)C(=O)c1ccc([N+](=O)[O-])cc1	-2%	4%

Five compounds from above, sorted by count of non-hydrogen atoms, low to high:
SMILES	Vaccinia mCherry	VACV Venus inh
Cn1cccc1/C=C1/C(=O)NC(=O)N(C(C)(C)C)C1=O	i	3%
CC1(Cc2c(Cl)cccc2Cl)C(=O)Nc2cc(-c3ccccc3Cl)ccc21 (stereo not given)	32%[activator]	-6%
Cc1ccc(CN2CC(C(=O)NNC(=O)Cn3ccc(C(F)(F)F)n3)CC2=O)cc1 (stereo not given)	-12%	-15%
COc1ccc(NS(=O)(=O)c2ccc(C)c(C(=O)N(C)Cc3ccc(C)cc3)c2)cc1	?	-18%
O=C(CN(c1cc(C(F)(F)F)ccc1Cl)S(=O)(=O)c1ccccc1)NCCc1ccccc1	-16%	-20%

The results go on:
SMILES	Vaccinia mCherry	VACV Venus inh
CCc1ccc(NC(=O)c2sc(-n3nc(C)c(Cc4ccc(OC)cc4)c3C)nc2C)cc1	-4%	-14%
O=C(c1cc(COc2cccc(C(F)(F)F)c2)on1)N1CCc2ccccc2C1	i	-19%
COc1ccc(CN(C)C(=O)CNC(=O)c2sc3ccccc3c2Cl)c(OC)c1OC	i	-15%
CCOC(=O)c1c(S(=O)(=O)N2CCCC(C(=O)Nc3cccc(CC)c3)C2)c(C)n(CC)c1C (stereo not given)	0%	-10%
COc1cccc(/C=N/n2c(-c3ccco3)nc3ccccc3c2=O)c1OC	i	-15%
CCN(CC(=O)NC(=O)NC1CCCCC1)Cc1nc2ccccc2c(=O)[nH]1	-3%[1.46 µM]	-13%
O=C(CNC(=O)c1cccs1)NCCN1CCN(Cc2ccccc2)CC1	0%	-10%
CCC/C(=N/NC(=O)c1cccc(Cl)c1)c1ccccc1	i	-18%
CCCCn1nnnc1C(CC)N1CCC2(CC1)C(=O)NCN2c1ccccc1 (stereo not given)	i	-6%
COc1cccc(/C=N/n2c(-c3cccs3)n[nH]c2=S)c1	nt	-21%
O=C1CCN(CCCc2ccccc2)CCN1CCO	-25%	-6%
Cc1ccc(C(C(=O)NC2CCCCC2)N(CCCN2CCOCC2)C(=O)c2snc(C(N)=O)c2N)cc1 (stereo not given)	-15%	-6%
Cc1ccc(Cl)cc1-c1ccc(C=Nc2ccc(N3CCOCC3)cc2)o1	7%	1%
Cn1c(SCC(=O)Nc2ccc(NC(=O)c3ccccc3F)cc2)nnc1-c1ccncc1	4%	11%
CC(=N[C@@H]1CCCC[C@H]1N=C(C)c1ccccc1O)c1ccccc1O	-19%	-1%
COc1ccc(NC(=O)CNC(=O)c2nn(-c3ccc(OC)c(OC)c3)c(=O)c3ccccc23)c(OC)c1	-4%	-19%
COC(C[C@@H]1O[C@@H]1[C@H](O)[C@H](C)OCc1ccccc1)OC	-5%	-13%
CCOC(=O)c1cc(-c2csc(Nc3c(C)cc(C)cc3C)n2)on1	-22%	-15%
COCCNC(=O)C(c1cccs1)N(C(=O)Cn1nnc2ccccc21)c1ccc(OC)cc1 (stereo not given)	-17%	-10%
COc1ccc(CCN2C(=S)N(C)C(=O)C2CC(=O)Nc2ccc(F)cc2)cc1 (stereo not given)	-20%	-13%
O=C1CCCN1CCCNS(=O)(=O)c1ccc(F)cc1F	i	1%
N#Cc1ccc2nc3c(nc2c1)CCCC3	?	-4%
C=CCN(CC=C)Cc1ccc(C(=O)OC)o1	nt	-13%
Cc1ccn2cc(C(=O)NC3CCN(Cc4ccccc4)CC3)nc2c1	-20%	-25%
COc1ccccc1OCC(=O)NCCS(=O)(=O)N1CCN(c2ccccc2)CC1	-13%	-30%
O=S(=O)(c1ccccc1)C1CON(Cc2ccccc2)C1c1ccccc1 (stereo not given)	i	5%
COC(=O)CSc1[nH]c2ccc(Br)cc2c1[N+](=O)[O-]	-19%	-4%
O=C(c1ccc(CNS(=O)(=O)c2ccc(Br)cc2)cc1)N1CCCCC1	-3%	-20%
O=C1C=C(NCc2ccco2)CC(c2ccc(Cl)cc2)C1 (stereo not given)	?	-23%
O=C(Nc1ccc(-n2cnnn2)cc1)c1cc(S(=O)(=O)N2CCCC2)ccc1Cl	-28%	-20%
COc1ccc(OCCC(=O)N2CCOCC2)cc1	-9%	0%
Cc1cc(Nc2ncc(Cl)cc2Cl)n(-c2ccccn2)n1	i	-18%
CCOC(=O)c1c(NC(=O)Cc2coc3cc(C)cc(C)c23)sc2c1CCC2	-1%	1%
CC(=O)c1ccc(NC(=O)c2cc(C)nc3c2c(C)nn3-c2ccc(C)cc2)cc1	-20%	-15%
Cc1cc(OC(=O)N2CCCCC2)cc(C)c1Cl	-13%	-9%
Cc1cc(Cl)ccc1NC(=S)NCc1ccco1	i	-14%

One compound at a time, from the list above.
O=C1C=C(NCc2ccco2)CC(c2ccc(Cl)cc2)C1 (stereo not given) in the list: Vaccinia mCherry: ?; VACV Venus inh: -23%
COc1ccc(OCCC(=O)N2CCOCC2)cc1 in the list: Vaccinia mCherry: -9%; VACV Venus inh: 0%
O=C(c1ccc(CNS(=O)(=O)c2ccc(Br)cc2)cc1)N1CCCCC1 in the list: Vaccinia mCherry: -3%; VACV Venus inh: -20%

Next part
SMILES	Vaccinia mCherry	VACV Venus inh
S=C(NCc1ccccc1)Nc1cccc2ccccc12	?	-11%
Cc1ccc(-c2ccccc2NC(=O)C2C3C=CC(C3)C2C(=O)O)o1 (stereo not given)	-10%	-8%
O=P(O)(O)C(O)C(F)(F)C(F)(F)C(F)(F)C(F)F (stereo not given)	-13%	-6%
Cc1ccccc1NC(=S)NCCc1ccccc1	-7%	-16%
O=C(c1ccccn1)N1CCN(S(=O)(=O)c2ccc3ccccc3c2)CC1	-4%	-16%
CC(C)C(NC(=O)c1c(F)cccc1F)C(=O)NC1CC(C)(C)NC(C)(C)C1 (stereo not given)	-14%	-5%
CC(=O)COc1nc2c(c(-c3ccco3)c1C#N)CCc1ccccc1-2	i[7.34 µM]	-7%[7.34 µM]
CCn1nnnc1-c1ccc(OC)c(S(=O)(=O)Nc2ccccc2OC)c1	-13%	-10%
O=C(NC1CCCCCC1)C(=S)NC1CCCCC1	i	-3%
NCC(=O)c1ccc(Cl)c(Cl)c1	-25%	-21%
O=C(O)c1cc(-c2cccs2)nn1-c1ccccc1	-14%	-10%
COc1ccc(S(=O)(=O)NC(C)C(=O)Nc2cccc(C(C)=O)c2)cc1 (stereo not given)	nt	-19%
COc1cccc(CNC(=O)c2cccc(N3CCCS3(=O)=O)c2)c1	-2%	5%
COC(=O)C1(CC2CC(c3ccccc3)=NO2)CCN(C(=O)OC(C)(C)C)CC1 (stereo not given)	-2%	-13%
c1ccc([C@H]2CC3C[C@@H](c4ccccc4)N2O3)cc1	-15%	-15%
O=S(=O)(NCc1ccccc1F)c1cccc(S(=O)(=O)N2CCOCC2)c1	-12%	-4%
Cc1cc(F)ccc1S(=O)(=O)N1CCCOC1CNC(=O)C(=O)NCC(C)C (stereo not given)	-17%	-11%
COc1ccc(NC(=O)CN(C)CC(=O)Nc2cccc(C(F)(F)F)c2)cc1	-8%	-13%
CCOc1cc(C)nc(N2CCC(C(=O)Nc3ccccc3OCC)CC2)n1	i	-14%
COc1ccc(C(=O)C(CN2CCCC2)c2ccccc2)cc1 (stereo not given)	11µM*	?
COC(=O)c1ccnc(/C=N/O)c1	i	-7%
N/C(=N\OC(=O)CCC1CCCC1)c1cccc([N+](=O)[O-])c1	i	-14%
CN1C(=O)Cc2cc(S(=O)(=O)N3CCN(c4ccccc4F)CC3)ccc21	-9%	-7%
COc1ccccc1N1CCN(C(=O)C2CCCN(S(=O)(=O)c3ccc4c(c3)CCCN4C(C)=O)C2)CC1 (stereo not given)	-25%&-27%	-13%&-28%
CCOc1ccc(OCC)c(NC(=O)CCSCCc2ccccn2)c1	?	-8%
CN(C)c1nc(N)c([N+](=O)[O-])c(NCCO)n1	i	22%

Compound activity as filed in PubChem.
